AID504770: growth inhibitors of E. coli YBA685 in a screen for V. cholerae RctB (chromosome II replication) inhibitors. E. coli YBA685 rctB-dependent plasmid, OD600 growth, 3 h; hits give low values. z-score (test concentration not listed). 130,000 tested, 0.27% active;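 active = z-score under -2 on both plates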;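 note: wells of about 30 µL received 100 nL stock; score is relative to mean and SD of the test wells; the first replicate is given; strong numbers were not always called active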
CapD inh: CapD enzyme inhibition | z-score (concentration not given with the values) | AID 492967 | purified CapD enzyme, fluorescence intensity read-out; hits give low values; some hits fall short of the stated cut | 140,000 tested, 0.23% active;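 active = z-score under -4 in either of two replicates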;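 note: stock transfer was 100 nL into about 40 µL; score is relative to mean and spread of the plate; one replicate is shown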
An asterisk follows results filed as active; x = no result given.

Compound | AID504770 | CapD inh
NC(=O)C1CCN(C(=O)CSc2nc(O)cc(=O)[nH]2)CC1 | 0.1 | x
CC1CN(CC(O)COC2CCCc3ccccc32)CC(C)O1 (configuration not stated) | 0.1 | x
Cc1cc(Sc2ccc(Cl)cc2)nc(-c2ccccn2)n1 | 1.4 | 0.24
CCOc1ccc(NC(=O)CSc2nc3[nH]ncc3c(=O)n2-c2ccc(OC)cc2)cc1 | -0.05 | 0.46
Nc1n[nH]c(CCCc2nc(N)n[nH]2)n1 | 0.05 | -0.36
C/C(N)=C(/C#N)C(=O)CSc1nc(C)nc2ccccc12 | -0.4 | x
CCOC(=O)CSc1nc(C)c2cc(C)c(C)cc2n1 | 0.15 | 0.38
Nc1sc2c(c1C(=O)c1ccccc1)CCCC2 | -0.2 | -0.42
CCOC(=O)N1CCN(C(=O)CN(c2cc(Cl)ccc2OC)S(=O)(=O)c2ccc(OC)c(OC)c2)CC1 | x | -0.41
COc1ccc(C(=O)Nn2c(C)nnc2-n2nc(C)cc2C)cc1OC | 2.2 | -1.6
COc1cc(CCNC(=O)OCC(C)c2ccccc2)cc(OC)c1 (configuration not stated) | x | -0.66
CC1=C/C(=C/c2ccco2)C(=O)O1 | -0.2 | 0.11
N#CC1(C#N)[C@H](c2ccccc2)[C@@H](C(=O)c2ccccc2)N2c3ccc(Cl)cc3C=C[C@@H]21 | x | -0.14
O=C(Nc1nccs1)C1C2/C=C\CCCCC21 (configuration not stated) | -0.2 | 0.41
COc1ccc(N2CCN(C(=O)c3sc4ncnc(N5CCC(C)CC5)c4c3C)CC2)cc1 | x | 0.46
COC(=O)c1sccc1OCc1ccc(Cl)cc1 | -0.15 | -0.14
O=C(Nc1ccc2nccnc2c1)c1ccc2nsnc2c1 | -0.3 | -1
O=S(=O)(NN1CCOCC1)c1ccc(Cl)s1 | -0.35 | 0.52
CC(=O)NC1(c2ccccc2)CCN(C(=O)c2cccs2)CC1 | 0.85 | x
CS(=O)(=O)N(CC(=O)N1CCCCC1)C1CCCCC1 | 0.1 | x
C=CCSC1=N/C(=C\c2ccccc2)C(=O)N1c1ccc(OC)cc1 | -1.1 | 0.16
Cc1cc(C)cc(N(CC(=O)O)S(=O)(=O)c2c(C)[nH]c(=O)[nH]c2=O)c1 | 0.4 | 0.2
O=C(CSc1nc2ccc(NC(=O)c3ccc(Br)cc3)cc2s1)NC1CC1 | x | 0.64
CCC(=O)c1ccc(OCC(O)CNC2CCCCCC2)cc1 (configuration not stated) | 0.45 | 0.26
O=C(c1ccc2c(c1)S(=O)(=O)N=C1CCCCCN12)N1CCCc2ccccc21 | -0.35 | x
CC1=CC(C)C(C2OCC(C)(C)CO2)C(C)C1 (configuration not stated) | -0.25 | -0.54
CCOC(=O)C1=C(C)Nc2ncnn2C1 | -0.75 | -0.13
CCOc1ccc(NC(=O)NC(C)CC)cc1 (configuration not stated) | -0.5 | 0.53
CCOc1cccc2c1OC(c1cc(OC)c(OC)c(OC)c1)N1N=C(c3cccs3)CC21 (configuration not stated) | x | -0.025
COC(=O)C(Cc1ccccc1)NC(=O)c1c(-c2ccccc2)noc1C (configuration not stated) | 1.6 | x
CC1CCN(C(=O)CNC(=O)c2cccs2)CC1 | -1 | 4.5
N#CCc1nn2c(-c3ccccc3)ccnc2c1C#N | -0.8 | 73
CN(C)S(=O)(=O)Oc1ccsc1C(=O)Nc1ccc([N+](=O)[O-])cc1 | x | -0.03
Cc1cc(N2CCN(c3nc4cc(Cl)ccc4s3)CC2)c2ccccc2n1 | x | -0.76
C=CCn1c(SCC(=O)c2ccccc2)nnc1-c1cc2ccccc2o1 | -0.4 | -0.32
Cc1nc2ccc(Cc3ccc4nc(C)oc(=O)c4c3)cc2c(=O)o1 | 0.4 | -0.12
CC1CCN(C(=O)c2ccc(NS(=O)(=O)c3ccccc3)cc2)CC1 | 0 | -0.21
O=C1c2ccccc2C(=O)N1CC1c2ccccc2CCN1S(=O)(=O)c1ccc(F)c(F)c1 (configuration not stated) | x | -0.79
CCOC(=O)N1CCCN=C1NNc1cc(Cl)ccc1OC | x | 0.39
O=c1[nH]c(CSc2ncc(-c3ccc(F)cc3)n2Cc2ccco2)nc2ccccc12 | -0.95 | x
CC(=O)OC(C)(C)C#CCN1CCCC1 | -0.05 | 0.4
CC1(C)Cc2c(sc3c2c(=O)n(-c2ccccc2)c2nnnn32)CO1 | -0.35 | 18
CC(C)(C)C(=O)NCC(c1cccs1)N1CCOCC1 (configuration not stated) | -0.2 | 0.47
CC1CC(C)CN(C(=O)COC(=O)c2cccnc2Nc2ccccc2F)C1 (configuration not stated) | 0.1 | x
CC(C)CC(=O)Nc1nc2ccc(S(C)(=O)=O)cc2s1 | 0.45 | x
COc1ccc(C2C3=C(CC(C)(C)CC3=O)OC3=C2C(=O)CC(C)(C)C3)cc1OC(=O)N(C)C | x | -1.2
N#CCc1ccc(OC(=O)c2cccnc2)cc1 | -1.2 | -0.53
COC(=O)C1=C(C)NC2=C(C(=O)CCC2)C1c1ccc(N(C)C)cc1Cl (configuration not stated) | -1.8 | 0.99
NCCN1CCc2ccccc21 | 0.35 | x
O=C1Nc2ccc(Cl)cc2/C1=C/c1ccc2c(c1)OCO2 | -0.05 | -0.43
O=C(c1ccco1)N1CCN(Cc2cccc(C(F)(F)F)c2)CC1 | 0.1 | 0.64
COc1ccc(CN2CC(C(=O)N3CCn4c(nc5ccccc54)C3)CC2=O)cc1 (configuration not stated) | 0.05 | 0.32
CNC(=O)NC(=O)CSc1nnc(Cc2ccccc2)n1-c1ccc(Cl)cc1 | -0.35 | 0.77
Cc1ccc(C(=O)OCC(=O)c2c[nH]c3ccccc23)cc1 | 1.8 | 2.7
Cc1ccccc1N1CCNCC1 | -0.1 | -0.8
C/C=C(\C)CN1CCN(CCOCCO)CC1 | 0.6 | 0.24

Reprinted at random: 3 entries already listed.
Compound | AID504770 | CapD inh
NCCN1CCc2ccccc21 | 0.35 | x
O=C1Nc2ccc(Cl)cc2/C1=C/c1ccc2c(c1)OCO2 | -0.05 | -0.43
CNC(=O)NC(=O)CSc1nnc(Cc2ccccc2)n1-c1ccc(Cl)cc1 | -0.35 | 0.77

The listing picks up, repeating the 6 entries before the break.
Compound | AID504770 | CapD inh
O=C(c1ccco1)N1CCN(Cc2cccc(C(F)(F)F)c2)CC1 | 0.1 | 0.64
COc1ccc(CN2CC(C(=O)N3CCn4c(nc5ccccc54)C3)CC2=O)cc1 (configuration not stated) | 0.05 | 0.32
CNC(=O)NC(=O)CSc1nnc(Cc2ccccc2)n1-c1ccc(Cl)cc1 | -0.35 | 0.77
Cc1ccc(C(=O)OCC(=O)c2c[nH]c3ccccc23)cc1 | 1.8 | 2.7
Cc1ccccc1N1CCNCC1 | -0.1 | -0.8
C/C=C(\C)CN1CCN(CCOCCO)CC1 | 0.6 | 0.24
CCN(CC(=O)Nc1ccc2c(c1)OCCO2)c1nnnn1-c1ccccc1 | 0.2 | x
CC(C)(C)NC1=C(C#N)C(=O)NC(c2ccccc2O)S1 (configuration not stated) | -0.45 | -1.1
CCCCCCCc1c(C#N)c(N)[nH]c(=S)c1C#N | 0.35 | x
CC1(C)CC(=O)C(c2c[nH]c3ccccc23)C(=O)C1 | -0.2 | 5
CNc1ccccc1C(C)(C)c1ccn[nH]1 | 0.15 | -0.27
CC1=C(C(=O)OCc2ccccc2)C(c2ccccc2)N(C)C(=O)N1C (configuration not stated) | -0.1 | -0.19
O=C(OCc1nnc(-c2ccccc2)o1)c1ccc2c(=O)n3c(nc2c1)CCCCC3 | -0.45 | x
COC(=O)C(C)n1ncc2ccccc2c1=O (configuration not stated) | -0.3 | -0.55

3 entries from above, set out differently.
Screens in order – AID504770, CapD inh
CCN(CC(=O)Nc1ccc2c(c1)OCCO2)c1nnnn1-c1ccccc1
    0.2, x
CC(C)(C)NC1=C(C#N)C(=O)NC(c2ccccc2O)S1 (configuration not stated)
    -0.45, -1.1
CCCCCCCc1c(C#N)c(N)[nH]c(=S)c1C#N
    0.35, x

(further entries)
Compound | AID504770 | CapD inh
CO/N=C/C(=N/Nc1ccc(OC)cc1)C(=O)c1ccc(-c2ccccc2)cc1 | x | -0.78
CCOc1ccc(S(=O)(=O)Nc2ncccc2C)cc1 | -1.1 | x
Cc1cc(NC(=O)c2sc(Nc3ccccc3F)nc2N)no1 | -0.65 | -3.3
CCc1ccc(/C=C2/C(=O)N(C)C(=S)N2C)cc1 | -1 | -2.3
O=C(Cc1c(F)cccc1Cl)NC(=O)NCCc1c(F)cccc1Cl | 0.95 | 5.6
C#CCN1C(=O)S/C(=C/c2cc(C)n(CC)c2C)C1=O | 0 | -0.015
COc1cc2c(cc1OC)C(=O)N(Cc1cccc(Cl)c1)CC2 | -0.7 | -0.48
Cc1ccc(CNc2ccc3c(c2)ncn3C)cc1 | -0.3 | 75

Additional structures follow:
SMILES | AID504770 | CapD inh
CC(=O)NCCOc1c(C)cc(S(N)(=O)=O)cc1C | 2 | 0.77
CCc1ccccc1NC(=O)CN1CCN(Cc2ccccc2C)S1(=O)=O | -3.5* | 0.52
COc1ccc(CNC(=O)c2nc3ncccn3n2)cc1 | -0.4 | -0.22
CCOC(=O)c1sc(=S)sc1SCC(=O)c1ccc(Cl)cc1 | x | -0.52
c1csc(-c2nc3cnccn3c2NC2CCCCC2)c1 | -1.3 | 2.2
Cc1nc2ccccc2c(=O)n1/N=C/c1cccs1 | -0.5 | x
CCCCCCC(=O)Nc1cccc(C(=O)N/N=C/c2cccc(Oc3ccccc3)c2)c1 | x | -0.085
O=C(NCCOc1ccccc1)c1n[nH]c(=O)c2ccccc12 | 0.05 | -0.19
Cc1ccc(C(C)C)c(OCC(=O)/C=C2\Sc3ccccc3N2C)c1 | 0.7 | 0.09
O=C(OCC(=O)C12CC3CC(CC(C3)C1)C2)c1ccc(-n2cnnn2)cc1 | -0.6 | x
O=C(Nc1ccccc1)Nc1cc(N2CCOCC2)ncn1 | -0.5 | x
CCN(CC)C(=O)c1ccc(Oc2nnnn2-c2ccccc2)c(OC)c1 | 2.1 | x
CN(C)C(=O)CNCC1CCCO1 (configuration not stated) | 0 | x
CNc1nc(-c2ccccc2)[n+](-c2ccccc2)s1 | -0.45 | 0.28
COc1cc(/C=C2\NC(=O)NC2=O)ccc1O | x | -1.6
CC(=O)OC(OC(C)=O)C12C=CC(O1)C1C(=O)N(c3ccc(C)cc3C)C(=O)C12 (configuration not stated) | x | -0.15
CCOC(=O)C1=CN(c2ccc(OCC)cc2)C=C(C(=O)OCC)C1c1cc(OC)c(OC)c(OC)c1 | x | 2.6
CC(C)(C)C1CCC(NN2CCOCC2)CC1 (configuration not stated) | -0.55 | -0.2
O=C(/C=C/c1cccs1)Nc1ccc(Br)cn1 | 0.45 | 0.89
CCOc1ccc(/C=N/N2C(C)CCCC2C)cc1 (configuration not stated) | 0.5 | x
c1csc(CN2CCN(c3nc(CN4CCOCC4)nc4sc5c(c34)CCC5)CC2)c1 | -0.2 | x
O=C(CNc1ccccc1)NN=C1CCCC1 | -0.3 | x
CCC(C(=O)Nc1ccc(OC)c(OC)c1)n1c(C)c2cnn(-c3ccccc3)c(=O)c2c1C (configuration not stated) | -0.05 | 0.06
CS(=O)(=O)N1CCCC(C(=O)NC2CCCC2)C1 (configuration not stated) | 2.8 | -1.7
Cc1cc(-c2ccccc2)nc2oc3c(c12)NC(=O)CN(c1ccccc1)C3=O | 2.6 | 0.14
COc1cccc(C(=O)NNC(=O)c2ccccc2OC)c1 | x | 2.3
COc1ccccc1N1C(=O)/C(=C/c2ccc(Cl)cc2)C=C1c1ccccc1 | x | -0.83
COc1ccc(-n2nc3c(c2NC(=O)c2ccc(S(=O)(=O)N(C)C)cc2)CS(=O)(=O)C3)cc1 | x | 0.08
CC(C)(C)c1ccc(S(=O)(=O)N=S2CCN(c3ncc(C(F)(F)F)cc3Cl)CC2)cc1 | 0.05 | 0.47
O=C(O)CCc1ccc(-c2cccs2)n1-c1cccc(Br)c1 | -0.25 | 0.68
COc1ccc(/C=C/C(O)=C2/C(=O)NC34CCCCC3C2c2ccccc2O4)c(OC)c1OC (configuration not stated) | -0.65 | 0.56
O=C(CSc1nnc2ccccn12)c1ccccc1 | -0.45 | 0.25
C=CCNC(=O)c1c(-c2ccccc2Cl)noc1C | -1.2 | -0.11
COC(=O)c1sccc1Nc1nc(C)cc(C)n1 | x | 43
O=C(Nc1ccc(S(=O)(=O)Nc2nccs2)cc1)c1sc2cc(Cl)ccc2c1Cl | x | 7.3
COc1cc(CN(C(=O)CN2C(=O)c3ccccc3S2(=O)=O)c2ccc(Cl)cc2)ccc1O | 0.45 | -0.7
COCCn1c(C)cc(C=C2C(=O)NC(=O)NC2=O)c1C | 0.1 | x
CCOC(=O)c1ccc(NC(=S)NCc2ccncc2)cc1 | x | -0.53
Cc1ccc(S(=O)(=O)c2cc(C(F)(F)F)cc(C(F)(F)F)c2)cc1 | x | -1.3
COc1cc(OC)cc(C(=O)NC2CCN(Cc3cccc(OC)c3[N+](=O)[O-])C2)c1 (configuration not stated) | x | -0.46
O=c1ccc(-c2cccs2)nn1Cc1ccccc1 | 0.1 | x
O=C(Nc1ccccc1)C1CC=CCC1C(=O)OCC1CCCO1 (configuration not stated) | 1.6 | -0.61
CSc1ncccc1C#N | x | 4.4
Cc1n[nH]c(C)c1CC(=O)O | -0.45 | x
Cc1cc(N2CCCC(C(=O)O)C2)n2cnnc2n1 (configuration not stated) | 0.85 | -1.9
CC1=CC(C)(C)NC(=S)N1 | x | 0.27
COc1ccc(N(C)C(=O)c2noc3c2COc2ccccc2-3)c(OC)c1 | -0.8 | -0.56
O=C(NCCc1c[nH]c2ccccc12)c1ccccn1 | 0.55 | -0.78
